NPYLR7 agonist: activates Aedes aegypti NPYLR7 receptor; 0.15% of 270,000 active; HEK293T NPYLR7/Galpha15, GCaMP6s calcium fluorescence; activation, % at 10 µM; in the data active means activation above about 40%;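 further: 0% = vehicle and 100% = reference agonist at the receptor; some compounds past the cut are filed as inactive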
NPYLR7 agonist max-min: second read-out of NPYLR7 agonist, no call of its own (marks repeat the call); activation, %; measured here: Max-Min RFU normalised activation; some inactives read as strong as hits;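 span of the calcium signal over five minutes; 0% = vehicle and 100% = native peptide agonist; compound fluorescence can raise it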
* = called active by the depositor; & = joins results of further samples.

molecule	NPYLR7 agonist	NPYLR7 agonist max-min
Clc1ccccc1CNCC#Cc1ccccc1	14	6
CC(C)S(=O)(=O)c1cccc(C(=O)Nc2onc3c2CCC3)c1	11	3
Cn1c(C(=O)O)ccc1-c1ccccc1Br	-6	-7
COc1cccc(C(=O)N(Cc2c(-c3cccc(C)c3)noc2N2CCOCC2)CC2CCCO2)c1 (centres undefined)	6	12
CCN(CC)CCSc1nc(O)c(C(C)C)c(=O)[nH]1	0	-3
O=[N+]([O-])c1ccc(C2c3cccn3CCCN2Cc2ccc(Cl)cc2)cc1 (centres undefined)	21	18
C=C(C)Cn1c(SCC(=O)N/N=C\c2cccn2C)nnc1-c1ccc(Br)cc1	-7	-15
COc1ccc(-c2c(NCc3ccccc3)oc3c2c(=O)n(C)c(=O)n3C)cc1OC	-4	-8
CC(C)C(NC(=O)COC(=O)c1ccc(F)c(F)c1)c1ccccc1 (centres undefined)	9	3
Cc1[nH][nH]c(=O)c1C(c1cc(Br)ccc1O)c1c(C)[nH][nH]c1=O	11	5

(next part)
molecule	NPYLR7 agonist	NPYLR7 agonist max-min
COCc1cc(C)nc(NN=Cc2ccc(OCc3ccc([N+](=O)[O-])cc3)cc2)c1C#N	17	11
O=C(NC(C(=O)N/N=C\c1ccc(Cl)c(Cl)c1)c1n[nH]c(=O)c2ccccc12)c1ccccc1 (centres undefined)	-9	-12
O=c1oc2c3c(ccc2cc1-c1ccccc1)OCN(C1CC1)C3	13	12
CC1=CCC2C(=O)N(NC(N)=S)C(=O)C2C1 (centres undefined)	6	5
Cc1cc(CC(=O)Nc2ccnn2Cc2cccc(Cl)c2)on1	-1	-3
Fc1cccc(F)c1C=NNc1ccc(C(F)(F)F)cn1	-5	-10
CCOc1cccc(-c2cc(C(=O)N=Nc3c(O)[nH]c4ccc(Br)cc34)[nH]n2)c1	-4	-3
CCCOc1ccc2cc(S(=O)(=O)NCc3ccco3)ccc2c1	2	-2
CCC(CNC(=O)N1CCOCC1)Oc1cccc(F)c1 (centres undefined)	-2	-2
CN(C)c1ncccc1CNC(=O)c1cnc2c(c1)nnn2C	1	-8

New compounds follow
molecule	NPYLR7 agonist	NPYLR7 agonist max-min
Clc1ccc2c(c1)N=C(N1CCNCC1)c1ccccc1N2	12	3
CC(=O)Nc1ccc(CN2CCC(O)(c3ccccc3C)C2)cc1 (centres undefined)	-6	-6
COc1ccc(C(=O)C2CCCN(C3Cc4ccccc4C3)C2)c(OC)c1 (centres undefined)	6	4
CN(C)CCCNc1ccc(S(N)(=O)=O)cc1[N+](=O)[O-]	6	16
O=C(NCC1CCCO1)c1cc2c(=O)n3ccccc3nc2s1 (centres undefined)	16	11
CC(NC(=O)Cc1csc(NC(=O)CN(C(=O)c2ccc(F)cc2)C2CC2)n1)c1ccccc1 (centres undefined)	-5	-3
N#Cc1ccc(CN2CCN(C(=O)c3ccc(O)c(Cl)c3)CC2)cc1	1	-1
CCS(=O)(=O)Oc1ccc(CN(C(=O)c2ccc(OC)cc2OC)C(C)C)cc1	-1	-9
COC(=O)c1c(NC(=O)Cn2nc([N+](=O)[O-])cc2C)sc2c1CCCC2	-2	-5
CC(C)(C)C(=O)NC1C(=O)Nc2ccccc21 (centres undefined)	-15	-15

More entries
molecule	NPYLR7 agonist	NPYLR7 agonist max-min
CN(Cc1cc(-c2ccccc2)no1)Cc1nccn1C	5	5
CCOc1ccc2nc(NC(=O)/C=C/c3ccc(Cl)cc3Cl)sc2c1	13	13
CCC(CNC(=O)c1cccc(Br)c1)N1CCCC1 (centres undefined)	6	0
COc1ccccc1NC(=O)N1CCCC(CNC(=O)c2ccccc2Cl)C1 (centres undefined)	-4	-7
CSC(SC)=C1C(=O)OC(C)(C)OC1=O	0	-1
CC(=O)Cc1nsc(NC(=O)c2ccc(Br)o2)n1	14	7
O=C(OC(C(=O)NC1CC1)c1ccccc1)C1=Cc2cc(Cl)ccc2OC1 (centres undefined)	9	2
C#CCOc1ccccc1OCC(=O)NCC(C)C	3	1
O=C1CCCC2=C1C(c1ccc3c(c1)OCO3)C1C(=O)c3ccccc3C1=N2 (centres undefined)	3	3
CCN(CC)CCn1c(C)cn2c3c(=O)n(Cc4cc(C)ccc4C)c(=O)n(C)c3nc12	-1	-2

Continuation.
molecule	NPYLR7 agonist	NPYLR7 agonist max-min
CN1CC2(CCN(C(=O)c3scc4c3OCCO4)C2)OC1=O (centres undefined)	2	4
Cn1nc(CC(=O)OCC2CC=CCC2)c2ccccc2c1=O (centres undefined)	-1	6
COc1c(C)ccc(NC(=O)c2cc(C)n(Cc3ccccn3)c2C)c1C	6	3
CCOC(=O)C1(C)CCCN1C(=O)c1ccc(C)c(F)c1 (centres undefined)	1	-2
C[C@@]12C(=O)N(CCO)c3ccccc3[C@@H]1[C@@H](C(N)=O)CN2C(=O)Nc1cccc(C#N)c1	13	23
CC(C)Cc1n[nH]c(CSc2ccccc2)n1	8	-7
CN1CCN(C(=O)C2(C)CCN2Cc2ccc(-c3ccccc3)o2)CC1 (centres undefined)	9	2
O=C(Oc1coc(CSc2ncccn2)cc1=O)c1cccc(F)c1	-11	-4
COc1cccc(C2C(=C(O)c3ccc(F)cc3)C(=O)C(=O)N2CCCN2CCOCC2)c1 (centres undefined)	3	-1
Cc1ccccc1N1CCN(C2CCCN(C(=O)CCOc3ccccc3)C2)CC1 (centres undefined)	17&8	5&4

Continued.
molecule	NPYLR7 agonist	NPYLR7 agonist max-min
Cc1ccc2c(c1)N(C(=O)c1n[nH]c3ccccc3c1=O)CCC2	3	1
O=C(CCNC(=O)C1CC2(CCNCC2)CN1)Nc1nccs1 (centres undefined)	8	5
Cc1cccc(NC(=O)CCC2CCN(S(=O)(=O)c3ccsc3)CC2)c1	5	4
O=[N+]([O-])c1cccc(NC(=NS(=O)(=O)c2ccccc2)c2ccccc2)c1	-5	-11
CC1(C(=O)NC2Cc3ccccc3C2)CCN1C(=O)c1ccccc1 (centres undefined)	1	0
O=C(Nc1ccc(Cl)cn1)c1ccc(F)cc1I	2	2
CCCCN1c2cccc3cccc(c23)S1(=O)=O	-5	-3
O=C(COc1ccc(Cl)cc1Cl)N1CCCc2ncccc21	5	0
O=C1C(=O)N(CN2CCCN(S(=O)(=O)c3ccc(F)cc3)CC2)c2cc(F)ccc21	0	-1
CCN(CC)S(=O)(=O)c1ccc2c(c1)nc(SCc1cccc(C)c1F)n2CC1CCCO1 (centres undefined)	8	2

Among those listed so far, 4 have a furan ring, fused or not.
molecule	NPYLR7 agonist	NPYLR7 agonist max-min
COc1ccc(-c2c(NCc3ccccc3)oc3c2c(=O)n(C)c(=O)n3C)cc1OC	-4	-8
CCCOc1ccc2cc(S(=O)(=O)NCc3ccco3)ccc2c1	2	-2
CC(=O)Cc1nsc(NC(=O)c2ccc(Br)o2)n1	14	7
CN1CCN(C(=O)C2(C)CCN2Cc2ccc(-c3ccccc3)o2)CC1 (centres undefined)	9	2

(further entries)
molecule	NPYLR7 agonist	NPYLR7 agonist max-min
CCc1ccccc1SCc1csc(-c2c(F)cccc2F)n1	7	9
CC(C)CCNC(=O)C(=Cc1ccc([N+](=O)[O-])o1)C(=O)NCCC(C)C	-2	-12
COCCOCCC(=O)NC(c1ccccc1)c1ccc(F)cc1 (centres undefined)	1	1
CCCCCCCCN1N=C(c2ccccc2)Cn2c1nc1c2c(=O)n(C)c(=O)n1C	0	5
COCCOC(=O)C1=C(C)NC2=C(C(=O)CC(c3ccc(Cl)cc3)C2)C1c1ccc(Br)cc1 (centres undefined)	17	22
CCN(CC)C1CCN(C(=O)c2cc(NC(C)=O)ccc2Cl)C1 (centres undefined)	16	0
CC(C)CCNC(=O)c1ncc(Cl)c(Cl)c1Cl	-2	-3
COc1cc(OC)c(C2NC(=O)NC(C)=C2C(=O)Nc2ccccc2C)cc1OC (centres undefined)	-14	-23
O=S(=O)(Cc1ccccc1)NCc1ccc2c(c1)OCO2	-1	-4
CN(C)c1ccccc1CN(CCC#N)C1CC1	-5	-11

More entries follow.
molecule	NPYLR7 agonist	NPYLR7 agonist max-min
CCCCOC(=O)c1cccc(NC(=O)CN2C(=O)c3ccccc3C2=O)c1	0	-6
CCCCn1c(CC)nc2oc3ccccc3c(=O)c2c1=O	2	0
CCCCC(=O)N(C)c1c(C)nc2ccc(C(=O)Nc3cccc(NS(C)(=O)=O)c3)cn12	-13	-15
CCC(C)NC(=O)c1cc(-c2ccccc2OC)nc2cc(C(C)(C)C)nn12 (centres undefined)	10	8
CC1(C(=O)Nc2cccc(C#N)c2)CCN1C(=O)c1ccccc1CCc1ccccc1 (centres undefined)	-4	-4
COc1ccc(Cl)cc1NC(=O)CCC1CCCN(C(=O)CN2CCOC2=O)C1 (centres undefined)	3	-2
O=C(Nc1ccc(-c2nc3cc(Cl)ccc3o2)c(Cl)c1)C1CC1	15	19
O=C(Cn1cnc2ccccc2c1=O)c1ccc(F)c(F)c1	21	19
CCc1nc(N(CCC(=O)Nc2cccc(F)c2)Cc2ccco2)c2ccc(Cl)cc2n1	11	13
CCOC(=O)C1(C(F)(F)F)N=C(N(C)C)OC(N(C)C)=N1	-3	-4

As a working copy, some entries already given.
molecule	NPYLR7 agonist	NPYLR7 agonist max-min
COc1ccc(C(=O)C2CCCN(C3Cc4ccccc4C3)C2)c(OC)c1 (centres undefined)	6	4
CN(C)CCCNc1ccc(S(N)(=O)=O)cc1[N+](=O)[O-]	6	16
O=C(NCC1CCCO1)c1cc2c(=O)n3ccccc3nc2s1 (centres undefined)	16	11
CC(NC(=O)Cc1csc(NC(=O)CN(C(=O)c2ccc(F)cc2)C2CC2)n1)c1ccccc1 (centres undefined)	-5	-3
N#Cc1ccc(CN2CCN(C(=O)c3ccc(O)c(Cl)c3)CC2)cc1	1	-1
CCS(=O)(=O)Oc1ccc(CN(C(=O)c2ccc(OC)cc2OC)C(C)C)cc1	-1	-9

Remaining list, next part.
molecule	NPYLR7 agonist	NPYLR7 agonist max-min
CO/N=C1\C[C@]2(C[C@@H]3C[C@@H](C/C=C(\C)C[C@@H](C)/C=C/C=C4\CO[C@@H]5[C@H](O)C(C)=C[C@@H](C(=O)O3)[C@]45O)O2)O[C@H](/C(C)=C/C(C)C)[C@H]1C	-3	-4
O=C(CCC1CCCC1)Nc1ccc(S(=O)(=O)Nc2ncccn2)cc1	10	15
COCCNc1oc2c(c1-c1ccc(Br)cc1)c(=O)oc1ccccc12	-10	-10
COc1ccc(CNC(=O)c2cccnc2N2CCN(C(=O)c3ccc(OC(F)F)cc3)CC2)cc1	-3	7
CN(Cc1noc2c1CCCC2)C(=O)c1ccccc1C1CCNC1 (centres undefined)	-4	-11
O=C(NCc1nnc(-c2cccc(Br)c2)o1)C1CC1	6	3
CC(C#N)N(C(=O)c1cccnc1Cl)c1ccccc1 (centres undefined)	1	19
Cc1ccc(CN2CCN(Cc3cc(CC(C)C)n[nH]3)CC2CCO)o1 (centres undefined)	-2	-3
CC(C)CCNC(=O)C1CCN(S(=O)(=O)c2ccc(F)c(Cl)c2)CC1	5	11
CC1CC(NC(=O)N(C)Cc2cnn(C)c2)C(=O)N1c1ccccc1 (centres undefined)	5	1

More records
molecule	NPYLR7 agonist	NPYLR7 agonist max-min
NC(=O)C1(N2CCCCC2)CCN(c2nc(-c3ccc(Cl)cc3Cl)cs2)CC1	9	1
CCOc1cc2c(cc1CNC(=O)CCl)OC(C)C2 (centres undefined)	3	2
CN(C(=O)c1c[nH]c2ccccc12)C1CCCN(CCc2ccccc2)C1 (centres undefined)	4	7
O=C(NCc1ccc(Cl)cc1Cl)c1cnccn1	6	7
Cc1cccc(N2CCN(C(=O)c3ccc(C)cc3O)CC2)c1	4	-1
COCc1c(Br)c(C)nc(OCC(=O)N/N=C\c2ccc(Cl)cc2Cl)c1C#N	-9	-17
O=C(O)CNC(=O)CN1C(=O)c2ccc(C(=O)O)cc2C1=O	0	4
Cc1nc2ccc(C(=O)N(C)CC3CCCCC3)cc2nc1C	-3	-3
CCC1CCCN(CC(=O)NNC(=O)c2ccc(Cl)cc2)C1 (centres undefined)	4	3
COc1ccc(CNC(=O)c2cccnc2N2CCN(C(=O)c3cc(Cl)nc(OC)c3)CC2)cc1	-4	8

(next part)
molecule	NPYLR7 agonist	NPYLR7 agonist max-min
CN(C)C=NN=C(Cc1nc2ccccc2[nH]1)c1ccccc1	-1	0
CC(NC(=O)c1cc(NC(=O)c2cccc(C(F)(F)F)c2)ccc1N1CCCC1)c1ccccc1 (centres undefined)	-13	-2
CCOC(=O)c1nn(-c2ccc(F)cc2)c(=O)c2c(NC(=O)CSCc3ccccc3)scc12	6	2
CC(C)N1CCNC(=O)C1CC(=O)N(C)Cc1csc(-c2ccccc2)n1 (centres undefined)	-3	-3
CCCCCCOC(=O)C1=C(C)NC(=O)NC1c1cc(OC)ccc1OC (centres undefined)	-2	-7
O=C(C=Cc1ccc(S(=O)(=O)N2CCOCC2)cc1)Nc1ccc(F)c(F)c1	5	-1
O=C(COc1ccc(Cl)cc1)NC1(c2ccccc2)CCC1	-9	-9
Cc1cc(C(=O)OC(C)C(=O)Nc2cc(Cl)cc(Cl)c2)c(C)o1 (centres undefined)	-4	-4
OCc1cc2ccccc2nc1-c1ccc2c(c1)OCCO2	0	-1
O=C(NCCN1CCOCC1)N(Cc1ccc(F)cc1F)C1CC1	-4	-4

Next compounds:
molecule	NPYLR7 agonist	NPYLR7 agonist max-min
C=C(C)COc1ccc(-c2oncc2-c2ccccc2OC)c(O)c1	1	-2
COC(=O)CNC(=O)CSc1nc(C)cc(C)c1C#N	10	3
Cc1ccc(CNC(=O)N(C)Cc2ccc3ccccc3c2)cc1	4	2
CC(=CC(=O)C(F)(F)F)NNC(=O)C(N)=O	1	-2
Nc1nn2c(-c3ccccc3)cc(-c3ccccc3)nc2c1[N+](=O)[O-]	0	-1
O=C(NCCCNc1ccccc1)c1scnc1Cl	3	2
ClC12CC3CC(C1)CC(n1nnc4ccccc41)(C3)C2	-12	-15
Cc1nc(Nc2ccc(NC(=O)Nc3ccccc3F)cc2)cc(OC(C)C)n1	-5	-5

Screening results from PubChem BioAssay.

The list is partial (hit frequency here may not be typical).
